INS promoter inh = inhibitors of insulin promoter-driven GFP, primary screen, imaging, TRM-6 cells (human fetal islet line), eGFP reporter, cell count; reporter expression induced with tamoxifen; inhibition, % at 2 µM; 0.9% of 130,000 active; AID 1273, 2008;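 active = inhibition above the mean plus 3 SD, with well images judged a real hit on visual review, cut at about 60% in these data, passing the limit was not always enough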
GALR2 agonist = GALR2 receptor agonists, primary screen, cell-based. activation, %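 (tested at 5 µM)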. Galanin receptor type 2 (Homo sapiens), O43603. GALR2-expressing cells, agonist activation read-out. AID 803, 2007. 0.48% of 140,000 active;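 active = above mean plus 3 SD of all compounds, about 5% in these data, not always enough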;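 note: 0% = vehicle buffer wells and 100% = reference agonist at full effect; tested in CHO reporter cells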
Target sequence (O43603 whole entry, looked up): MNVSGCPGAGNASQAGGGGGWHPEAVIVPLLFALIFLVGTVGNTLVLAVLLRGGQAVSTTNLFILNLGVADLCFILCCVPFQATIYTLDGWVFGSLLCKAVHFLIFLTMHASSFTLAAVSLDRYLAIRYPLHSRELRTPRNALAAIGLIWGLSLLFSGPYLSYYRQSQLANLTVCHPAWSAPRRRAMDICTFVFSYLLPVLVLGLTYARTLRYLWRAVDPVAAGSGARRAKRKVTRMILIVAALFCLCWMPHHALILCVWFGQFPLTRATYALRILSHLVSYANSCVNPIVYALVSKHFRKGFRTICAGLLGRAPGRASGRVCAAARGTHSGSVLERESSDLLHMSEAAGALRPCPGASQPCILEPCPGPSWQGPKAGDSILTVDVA
RGS16-Gao = modulators of RGS16 binding to Galphao, primary screen, biochemical, human proteins, multiplexed bead flow cytometry | AID 1441, 2008 | 0.38% of 220,000 active | binding response (% of control), % at 10 µM | Regulator of G-protein signaling 16 (Homo sapiens) + Guanine nucleotide-binding protein … | bead-based flow cytometry RGS16-Galphao binding, fluorescence; actives lie on both sides;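 active = below 25% or above 175%, edge rows of some plates excepted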;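 note: Galphao activated by GDP with aluminum fluoride before binding; 100% = wells without compound and 0% = beads without RGS; some results beyond the cut were filed as inactive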
Target sequence (O15492 whole entry, looked up): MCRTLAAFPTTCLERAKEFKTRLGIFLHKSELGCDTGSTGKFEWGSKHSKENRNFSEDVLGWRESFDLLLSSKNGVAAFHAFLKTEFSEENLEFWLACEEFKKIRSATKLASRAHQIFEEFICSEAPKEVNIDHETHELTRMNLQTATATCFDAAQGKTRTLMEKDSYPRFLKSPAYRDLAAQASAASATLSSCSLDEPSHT
Target sequence (P09471 whole entry, looked up): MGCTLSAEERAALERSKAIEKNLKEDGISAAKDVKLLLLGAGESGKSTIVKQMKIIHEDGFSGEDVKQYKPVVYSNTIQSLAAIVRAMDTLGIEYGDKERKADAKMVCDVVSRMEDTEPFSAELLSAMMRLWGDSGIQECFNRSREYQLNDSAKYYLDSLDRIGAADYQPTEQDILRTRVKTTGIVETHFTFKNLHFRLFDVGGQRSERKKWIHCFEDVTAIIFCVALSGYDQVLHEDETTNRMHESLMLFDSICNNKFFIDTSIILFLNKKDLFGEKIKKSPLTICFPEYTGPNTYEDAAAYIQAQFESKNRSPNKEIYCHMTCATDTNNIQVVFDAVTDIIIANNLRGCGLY
PKD1 kinase inh = inhibitors of human PKD1 kinase, biochemical, fluorescence polarization; PKD1 kinase fluorescence polarization assay; inhibition, %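 (about 10 µM by stock and volumes)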; Serine/threonine-protein kinase D1 (Homo sapiens), Q15139; 0.056% of 200,000 active;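 active = inhibition of 50% or more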;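 note: controls were vehicle for no effect and a reference inhibitor for full effect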
HSV augment = enhancers of HSV replication in host cells, fold increase, host cell viability | AID 1956, 2009 | HSV replication augmentation in cells | maximum fold increase | 0.005% of 220,000 active;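 active = peak rise of 1.5-fold or more in the series; tested in PC3 cells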;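 note: first round at 10 µM; read as green reporter fluorescence; hits show the peak of a series up to 25 µM; 1 = signal of infected wells without compound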
INS promoter inh cell count = recorded beside INS promoter inh, whose call it bears; normalized cell count, %; measured here: cell count, toxicity; reference of the scale not given here;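 cells exposed to compound for 48 h; stained nuclei by imaging scaled within each plate; lower means fewer cells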
HSV augment primary fold = also measured in HSV augment; calls as there; fold increase; compound at 10 µM; measured here: primary screen fold increase 10 uM; tested in PC3 cells;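 GFP signal in the first replicate; 1 = infected wells without compound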
* = called active by the depositor; i = inactive; nt = not tested or not shown; & = joins results of further samples; [ ] = dose if it differs, or a comment.

smiles,INS promoter inh,INS promoter inh cell count,GALR2 agonist,RGS16-Gao,PKD1 kinase inh,HSV augment,HSV augment primary fold
O=C(O)CN1C(=O)C2C3CC(C2C1=O)C1C(c2ccccc2)c2sc(=O)[nH]c2SC31 (configuration not stated),-12,161,-0.9,103,-4,i,1.1
Nc1ccc(C(=O)N/N=C\C=C\c2cccc([N+](=O)[O-])c2)cc1,-45,46,nt,102,-5,i,0.89
O=C(CCCOc1ccc(Cl)cc1Cl)N1CCc2ccccc2C1,69,144,-0.4,104,-11,i,1.1
Cc1ccnc2nc(C(=O)Nc3cc(Cl)ccc3N3CCOCC3)nn12,32,102,-0.3,98,-10,i,1
COc1ccc(C2NC(=S)NC(C)=C2C(=O)Nc2ccccn2)cc1 (configuration not stated),nt,nt,nt,99,4,i,0.86
O=C(NC1CCCCC1)N1CCc2ccccc21,-41,92,-1.2,120,4,i,1
CCn1c(COc2ccccc2Cl)nnc1SCC(=O)Nc1ncccc1C,27,116,-0.5,106,-5,i,0.92
Cc1ccc(NCc2n[nH]c(=S)n2Cc2ccccc2)cc1Cl,nt,nt,nt,103,-4,i,0.93
COC(=O)CSc1nnc2n(C3CCCCC3)c(=O)c3c4c(sc3n12)CCCC4,-7,83,-1.1,100,1,i,0.64
O=C(Nc1ccc(C(=O)NN2C(=O)c3ccccc3C2=O)cc1)c1ccccc1,0,80,nt,99,-2,i,0.91
C=CCNC(=S)NNc1nc2c(c(=O)[nH]1)C1(CCCC1)Cc1ccccc1-2,10,124,-1.7,99,-8,i,0.73
CCCC(=O)Nc1nnc(SCC(=O)Nc2ccc3c(c2)OCO3)s1,nt,nt,-1.1,104,-2,i,0.97
Cc1c(Cl)cccc1Nc1nc(N)nc(CSCCO)n1,16,53,-0.8,105,1,i,0.87
COc1ccc(C(=O)NC(=S)Nc2ccc(S(N)(=O)=O)cc2)cc1,nt,nt,nt,98,-1,i,0.91
Cn1nc([N+](=O)[O-])nc1N1CCN(c2ccc(F)cc2)CC1,10,84,-0.2,102,-6,i,1.1
CCCCN(C)C1CCN(C(=S)Nc2ccc(OCC)cc2)CC1,53,100,nt,118,-10,i,1.1
CC(C)C(Nc1ccc(C(F)(F)F)cc1[N+](=O)[O-])C(=O)O (configuration not stated),nt,nt,nt,99,8,i,0.86
CCCOC(=O)C1=C(C)OC23OC(N)=C(C#N)C12C(=O)c1ccccc13 (configuration not stated),12,138,-1.4,103,2,i,1.1
COC(=O)c1c(C)oc(C)c1S(=O)(=O)NCc1ccco1,nt,nt,nt,99,nt,i,1
Cc1cccc(-c2nnc(-c3ccccc3)o2)c1,-18,130,-3.0,99,-4,i,1
O=C(NC1CCCC1)C(c1ccncc1)N(Cc1ccccc1)C(=O)c1ccc(-c2ccccc2)[nH]1 (configuration not stated),-37,95,-1.2,103,-14,i,0.77
Cc1ccc(CN2CCN(Cc3ccccc3C(F)(F)F)CC2)cc1,-15,69,-0.9,99,-10,i,0.84
Cc1cccc(C)c1OCc1nc2ccccc2c(=O)n1/N=C/c1ccc(OCC(=O)O)cc1,36,95,-1.0,105,-12,i,1.1
COc1ccc(C(=O)COc2ccccc2C(=O)Nc2ccccc2)cc1,nt,nt,nt,101,-5,i,0.96
O=C(COc1ncnc2ccccc12)Nc1cc([N+](=O)[O-])ccc1Cl,nt,nt,nt,100,1,i,0.96
Brc1ccc(-c2csc(/N=C/N3CCCC3)n2)cc1,nt,nt,nt,104,-2,i,0.85
Cc1ccccc1CN1CCN(C/C=C/c2ccccc2)CC1,-16,89,-1.1,103,-7,i,0.75
COc1cc(/C=C2/C(=N)N3C(c4ccccc4)=CSC3=NC2=O)ccc1OCC(=O)O,nt,nt,nt,95,nt,i,0.89
CC(=O)NN=C1CCC(c2ccccc2)CC1 (configuration not stated),20,186,-0.3,101,-7,i,0.92
COc1ccc(CN(Cc2cc3cc(OC)c(OC)cc3[nH]c2=O)C(=O)NC2CCCCC2)cc1,16,179,-1.2,102,-4,i,0.8
Cc1cccc(NC(=S)N2N=CCC2c2ccccc2)c1 (configuration not stated),-23,113,-1.8,104,-1,i,0.89
O=C(NC(=S)Nc1ccc(N2CCCCC2)cc1)c1ccco1,-10,68,-0.7,103,4,i,1
Nc1nc(N)c(N=Nc2ccc(S(N)(=O)=O)cc2)c(=O)[nH]1,nt,nt,nt,100,nt,i,1
COCc1cc(C)nc2sc(C(=O)N3CCCCC3)c(N)c12,-37,52,-1.2,96,-1,i,0.94
COc1cc(OC)cc(C(=O)NC2CCN(Cc3nnnn3Cc3ccc(F)cc3)CC2)c1,nt,nt,nt,167,-3,i,0.93
CCc1ccc(N(C2C=CS(=O)(=O)C2)S(=O)(=O)c2ccc(C)cc2)cc1 (configuration not stated),nt,nt,nt,118,nt,i,1.1
Cc1ccc2c(c1)CCCN2C(=O)NC1CCCCC1,nt,nt,nt,101,3,i,1.1
CCC(c1nnnn1C(C)(C)C)N1CCN(C2CCCC2)CC1 (configuration not stated),-7,103,-0.4,98,6,i,1
O=c1[nH]c2ccc(NS(=O)(=O)c3ccc([N+](=O)[O-])cc3)cc2[nH]1,22,106,nt,99,-6,i,0.97
Cc1cc(C)nc(N/N=C/c2cc(C)n(CC(F)(F)F)c2C)n1,nt,nt,nt,101,1,i,0.87
Cc1nc(Nc2ccc3c(c2)OCCO3)c2oc3ccccc3c2n1,67,170,0.4,92,9,i,0.85
CNC(C)c1ccc(S(N)(=O)=O)cc1 (configuration not stated),37,131,nt,97,-2,i,1.1
CCOC(=O)COC(=O)c1ccc(O)cc1,-10,116,-0.7,107,1,i,0.86
COc1ccc(CCNC(=O)/C(=C/c2cccnc2)NC(=O)c2ccccc2)cc1,nt,nt,1.1,226*[activator],1,i,0.84
CC1CN(S(=O)(=O)c2ccc(Cl)c(S(=O)(=O)N3CC(C)OC(C)C3)c2)CC(C)O1 (configuration not stated),nt,nt,-3.2,45,-2,i,0.67
Cc1noc(C)c1CSc1nnc2c(C)cc3ccccc3n12,-9,44,-3.1,nt,-9,nt,nt
Cn1ccnc1SCc1cn2ccccc2n1,-35,85,-1.0,222,-2,i,0.98
Cc1ccccc1Nc1c(-c2ccccc2)nc2ncccn12,nt,nt,nt,105,nt,i,1.1
C/C(=N\NC(=O)CC1N=C(Cc2ccccc2)NNC1=O)c1ccc(C)cc1 (configuration not stated),8,173,0.1,102,4,i,0.98
CCn1cc(C(=O)O)c(=O)c2cc(F)c(N3CCN(C)CC3)cc21,nt,nt,nt,103,1,i,1.1&0.93
CC(=O)C1=C(C)NC(=O)CC1c1ccc(F)cc1 (configuration not stated),31,38,nt,102,-7,i,1
Cc1ccc(CN2CC34C=CC(O3)C(C(=O)NCc3ccco3)C4C2=O)cc1 (configuration not stated),-7,71,-0.7,103,17,i,0.93
Cc1cc2ccccc2nc1Br,10,69,-0.2,112,1,i,1
CCOC(=O)C(Cc1ccccc1)NC(=O)CCc1c(C)nc2nc(C)nn2c1C (configuration not stated),-21,138,-2.6,62,-6,i,0.91
CCn1c(SCC(=O)NC(C)c2ccccc2)nc2ccccc21 (configuration not stated),6,94,-1.4,106,6,i,1.1
CCN(CC)c1ccc(/C=N/NC(=O)c2ccc3nc[nH]c3c2)c(O)c1,nt,nt,nt,93,nt,i,0.63

Going on with the list.
smiles,INS promoter inh,INS promoter inh cell count,GALR2 agonist,RGS16-Gao,PKD1 kinase inh,HSV augment,HSV augment primary fold
COc1cc(C(=O)N2CCCC(c3nc(-c4cccs4)no3)C2)cc(OC)c1OC (configuration not stated),21,54,-3.5,105,-2,i,0.97
COc1ccc(OCCSc2nc(N)cc(N)n2)cc1,-35,97,-2.9,99,-10,i,0.91
COc1ccc(NCC(=O)N/N=C/C=C/c2ccccc2[N+](=O)[O-])cc1,55,201,nt,110,0,i,0.76
CCOC(=O)Cn1nc(C(F)F)c(Br)c1C,53,111,nt,102,-5,i,0.91
O=C1N2CCSC2=NC1(NS(=O)(=O)c1ccccc1)C(F)(F)F (configuration not stated),nt,nt,-2.8,95,2,i,1
CCOc1ccc(Nc2nc(NCCN3CCOCC3)nc(OC)n2)cc1,7,95,-1.0,101,3,i,0.87
COc1cc(O)oc1C=Nc1ccc(Cl)cc1,-50,116,0.4,97,-3,i,0.95
COc1ccc(/C=N/NC(=O)c2cccnc2)cc1CN1CCCc2ccccc21,nt,nt,nt,103,6,i,1.2

Five compounds drawn at random from those above, as already listed:
smiles,INS promoter inh,INS promoter inh cell count,GALR2 agonist,RGS16-Gao,PKD1 kinase inh,HSV augment,HSV augment primary fold
COc1ccc(NCC(=O)N/N=C/C=C/c2ccccc2[N+](=O)[O-])cc1,55,201,nt,110,0,i,0.76
CCOC(=O)Cn1nc(C(F)F)c(Br)c1C,53,111,nt,102,-5,i,0.91
COc1ccc(OCCSc2nc(N)cc(N)n2)cc1,-35,97,-2.9,99,-10,i,0.91
O=C1N2CCSC2=NC1(NS(=O)(=O)c1ccccc1)C(F)(F)F (configuration not stated),nt,nt,-2.8,95,2,i,1
COc1ccc(/C=N/NC(=O)c2cccnc2)cc1CN1CCCc2ccccc21,nt,nt,nt,103,6,i,1.2

Following part:
smiles,INS promoter inh,INS promoter inh cell count,GALR2 agonist,RGS16-Gao,PKD1 kinase inh,HSV augment,HSV augment primary fold
Cc1ccc(NC(=O)CSc2nc3ccccc3c3nc4ccccc4n23)cc1,nt,nt,-1.4,98,2,i,0.55
COc1ccc(-c2cc(N3C(=O)Nc4ccccc4N3O)n[nH]2)cc1,nt,nt,-0.9,109,-1,i,1
COc1cc(/C=N/n2nnnc2N)ccc1OCc1c(C)no[n+]1[O-],-25,137,0.0,108,2,i,0.69
COc1cc(NC(=O)c2cccc(Cl)c2)c(OC)cc1NC(=O)CN1CCCCC1,0,144,nt,103,-7,i,0.88
CCN(CC)S(=O)(=O)c1cc(F)ccc1OC,-38,110,-2.4,50,5,i,0.99
O=c1nc(-c2ccccc2)c2ccccc2[nH]1,nt,nt,1.0,106,0,i,1
O=C(c1cnn2c(C(F)F)cc(-c3ccccc3)nc12)N1CCOCC1,24,96,0.5,97,-12,i,0.79
CCOC(=O)N1CCC(Nc2c(NCCCN3CCN(C4CCCCC4)CC3)c(=O)c2=O)CC1,8,58,nt,109,2,i,0.98
CCOC(=O)NC(=O)CSc1nnnn1-c1ccccc1,-18,105,-0.5,123,-16,i,1
COc1cccc(C2C(C(C)=O)=C(O)C(=O)N2Cc2ccco2)c1 (configuration not stated),-32,83,-2.5,101,-2,i,0.78
CNNC(=S)Nc1cccc(SC)c1,nt,nt,nt,100,nt,i,1
COc1ccc(N(CC(=O)NCc2cccnc2)S(=O)(=O)c2ccccc2[N+](=O)[O-])c(OC)c1,nt,nt,nt,100,0,i,0.95
CSc1cccc(NC(=S)N(CCCN2CCCC(C)C2)Cc2cccs2)c1 (configuration not stated),-40,104,nt,102,-8,i,0.92
CC(=O)Nc1ccc(/C=N/NS(=O)(=O)c2cc(C)ccc2C)cc1,nt,nt,nt,102,nt,i,1.3
